# Screening results: PubChem, National Center for Advancing Translational Sciences (NCATS)
# FEN1 inh: human FEN1 inhibition; P39748; Potency, µM (titrated, usually from 114 µM), for inactives: top-dose activity change, negative = inhibition, hits mostly inhibitors; 0.35% of 390,000 active; Recombinant FEN1 flap cleavage, fluorescence, 15 min; also: nearly all actives have a fitted effect of over 65% in size
# Target sequence (P39748 whole entry, looked up): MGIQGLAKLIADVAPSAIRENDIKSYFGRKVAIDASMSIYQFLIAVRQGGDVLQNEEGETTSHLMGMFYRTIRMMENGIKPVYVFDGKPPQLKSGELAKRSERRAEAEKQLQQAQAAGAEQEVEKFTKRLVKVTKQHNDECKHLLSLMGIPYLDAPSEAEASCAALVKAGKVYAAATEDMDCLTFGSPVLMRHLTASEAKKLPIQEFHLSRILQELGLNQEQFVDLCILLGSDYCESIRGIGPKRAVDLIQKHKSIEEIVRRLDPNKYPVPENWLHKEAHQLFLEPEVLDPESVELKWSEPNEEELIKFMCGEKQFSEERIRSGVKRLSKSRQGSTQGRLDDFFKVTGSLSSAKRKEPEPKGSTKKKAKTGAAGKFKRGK
#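 Compounds are tested as a concentration series against 10 nM FEN1; after a 15 min room-temperature preincubation, 50 nM substrate starts cleavage, with plate reads at 0 and 15 min. Normalized responses are fitted by a Hill equation.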
# TDP1 block: inhibitors of human tyrosyl-DNA phosphodiesterase TDP1. Q9NUW8. recombinant TDP1, AlphaScreen DNA substrate cleavage. Potency, µM (series often up to 130 µM), inactives show at the top dose activity change, negative = inhibition, most hits filed as inhibitors. 0.28% of 350,000 active. AID 485290; also: nearly all actives have a fitted effect of over 40% in size
# Target sequence (Q9NUW8 whole entry, looked up): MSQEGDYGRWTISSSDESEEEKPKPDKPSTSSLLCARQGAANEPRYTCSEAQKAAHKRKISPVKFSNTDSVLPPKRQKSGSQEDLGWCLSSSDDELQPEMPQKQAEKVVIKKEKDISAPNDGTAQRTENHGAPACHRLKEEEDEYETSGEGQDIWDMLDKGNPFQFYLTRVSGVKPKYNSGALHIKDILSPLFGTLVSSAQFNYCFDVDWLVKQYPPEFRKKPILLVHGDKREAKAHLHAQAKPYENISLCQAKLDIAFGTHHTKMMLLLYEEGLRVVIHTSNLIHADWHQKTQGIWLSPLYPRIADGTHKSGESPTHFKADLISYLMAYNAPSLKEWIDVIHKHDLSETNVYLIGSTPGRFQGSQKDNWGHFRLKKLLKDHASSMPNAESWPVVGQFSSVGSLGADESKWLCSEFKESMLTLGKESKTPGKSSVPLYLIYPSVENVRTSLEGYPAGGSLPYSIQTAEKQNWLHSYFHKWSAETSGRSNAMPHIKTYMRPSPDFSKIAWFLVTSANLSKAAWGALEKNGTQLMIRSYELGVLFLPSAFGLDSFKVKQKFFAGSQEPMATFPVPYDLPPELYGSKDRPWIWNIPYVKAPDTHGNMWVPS
#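 Steps: enzyme plus compound, 15 min RT; add biotin/phosphotyrosine-FITC oligonucleotide (15 nM final), react 5 min; add donor/acceptor beads (10 ug/ml final), 10 min; read AlphaScreen. Tdp1 at 1 nM final.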
# Active calls of the source: *; . = not tested or not shown; & = joins results of further samples; [ ] = remark or other dose. Calls follow the shape of the dose curve; as a rule, active = well fitted inhibition curve with a large enough effect; inconclusive = small, poorly fitted or top-dose-only effect; inactive = no such curve, though single readings can be large or run the other way. % is scaled to controls: 0 for no effect and ±100 for the full control effect; potency is read from the fitted curve at half-maximal effect. Only part of the results is shown, and most or all hits are left out here.
SMILES,FEN1 inh,TDP1 block
COC(=O)c1oc2ccc(Br)cc2c1NC(=O)CCCN1C(=O)c2ccccc2C1=O,-13%,7%
COc1cc(C2Nc3ccc4ncccc4c3C3=C2C(=O)CC(C)(C)C3)cc(OC)c1O (stereo not drawn),-22%,5%
CC(C)(C)c1ccc(N=C2SCC(=O)N2Cc2cccs2)cc1,-17%,-5%
CC1(C)CC(=O)C(C(O)c2cccc([N+](=O)[O-])c2)C(C)(C)N1 (stereo not drawn),-12%,.
CCc1nc(SCC#N)c(C#N)cc1C,.,6%
O=C(NCc1ccc2c(c1)OCO2)C1(S(=O)(=O)c2ccccc2)CC1,12%,5%
C[C@]1(CC/C(=C/CO)CO)[C@H](CO)CC[C@@]23COC(=O)C2=CCC[C@@H]31,-4%,.
COc1ccc(-c2ccc(CCC(=O)O)n2CC2CCCO2)cc1 (stereo not drawn),-7%,8%
O=C(c1ccc(CS(=O)(=O)c2ccc(Br)cc2)o1)N1CCOCC1,6%,5%
Cc1ccc(C)c(OCCC(=O)OCC(=O)c2ccc3c(c2)NC(=O)CO3)c1,9%,.
COc1ccc(OC)c(-c2csc(NC(=O)CN3C(=O)NC4(CCCC4)C3=O)n2)c1,-18%,7%
CCOc1cc(/C=N/NC(=O)c2cccc(S(=O)(=O)N3CCOCC3)c2)ccc1OCC(=O)N(C)C,-20%,1%
CN(C)c1cc(N/N=C/c2ccccc2C(F)(F)F)nc(N(C)C)n1,0%,3%
CC(C)C1/C(=N/O)CC(c2ccccc2)NC1c1ccccc1 (stereo not drawn),-12%,5%
Cc1ccc(-c2nc3cnccn3c2Nc2ccccc2)o1,-8%,5%
COc1cc(CC(=O)Nc2cc(S(C)(=O)=O)ccc2Cl)cc(OC)c1OC,-18%,6%
CCCOc1cccc(C(=O)NCCNC(=O)c2ccco2)c1,-5%,3%
CC1CCCN(C(=O)c2ccc(-c3ccccc3Cl)o2)C1 (stereo not drawn),-5%,0%[0.505 µM]
O=C1CCC(c2ccccc2)=NN1Cc1c(F)cccc1Cl,-3%,1%
O=C(COC(=O)C1CC2C=CC1C2)Nc1ccccc1F (stereo not drawn),0%,3%
Cc1ccc(CNS(=O)(=O)c2c(C(=O)N3CCCCCC3)c(C)n(C)c2C)cc1,19%,7%
CCCOc1ccc(N2CC(C(=O)NCCc3ccc(OC)c(OC)c3)CC2=O)cc1 (stereo not drawn),8%,5%
Cc1ccc(C(=O)Cn2c(N3CCOCC3)nc3c2c(=O)n(C)c(=O)n3C)cc1,11%,-3%
CCNC(=S)N/N=C/c1ccc(C#N)cc1,16%,0%
Cc1scc(C(=O)N2CCN(S(C)(=O)=O)CC2)c1-c1ccccc1,5%,7%

# Structures shown so far with a halogen (7):
SMILES,FEN1 inh,TDP1 block
COC(=O)c1oc2ccc(Br)cc2c1NC(=O)CCCN1C(=O)c2ccccc2C1=O,-13%,7%
O=C(c1ccc(CS(=O)(=O)c2ccc(Br)cc2)o1)N1CCOCC1,6%,5%
CN(C)c1cc(N/N=C/c2ccccc2C(F)(F)F)nc(N(C)C)n1,0%,3%
COc1cc(CC(=O)Nc2cc(S(C)(=O)=O)ccc2Cl)cc(OC)c1OC,-18%,6%
CC1CCCN(C(=O)c2ccc(-c3ccccc3Cl)o2)C1 (stereo not drawn),-5%,0%[0.505 µM]
O=C1CCC(c2ccccc2)=NN1Cc1c(F)cccc1Cl,-3%,1%
O=C(COC(=O)C1CC2C=CC1C2)Nc1ccccc1F (stereo not drawn),0%,3%

# Back to the main list; the 3 compounds before the break are reprinted first.
SMILES,FEN1 inh,TDP1 block
Cc1ccc(C(=O)Cn2c(N3CCOCC3)nc3c2c(=O)n(C)c(=O)n3C)cc1,11%,-3%
CCNC(=S)N/N=C/c1ccc(C#N)cc1,16%,0%
Cc1scc(C(=O)N2CCN(S(C)(=O)=O)CC2)c1-c1ccccc1,5%,7%
Cc1c(Cl)cccc1-c1ccc(CNCc2ccccn2)o1,9%,.
CCOC(=O)c1ccccc1NC(=O)c1cn(-c2ccc(OC)cc2)c(=O)c2ccccc12,-11%,1%
CC(OC(=O)c1cc(-c2cccnc2)nc2ccccc12)C(=O)Nc1ccc2ccccc2c1 (stereo not drawn),-6%,6%
Cc1nn(-c2ccccc2)c2sc(C(=O)OCn3nnc4ccccc4c3=O)cc12,9%,8%
COC(=O)c1ccc(NC(=O)CC2C(=O)N(C)C(=S)N2Cc2ccc(S(N)(=O)=O)cc2)cc1 (stereo not drawn),12%,0%
O=C(Cc1n[nH]c(=O)c2ccccc12)Nc1ccc(-c2nnc3n2CCCCC3)cc1,9%,2%
CCn1cc(Cl)c(C(=O)Nc2cccc(CN3CCOCC3)c2)n1,13%,3%
O=C(CN(Cc1cccs1)C(=O)CNS(=O)(=O)c1ccccc1)NC1CCCC1,-2%,-5%
COc1cc(CNC(C)(C)CO)ccc1OCC(=O)NC(C)(C)C,-3%,3%
O=C(N/N=C/c1ccc(N2CCOCC2)cc1)c1ccc(NS(=O)(=O)c2cccs2)cc1,-11%,-2%
CC(C)Oc1ccc(C2CC(=O)N(C)C2=O)cc1 (stereo not drawn),9%,3%
CCOc1ccc(N2CC(C(=O)Nc3nnc(CC)s3)CC2=O)cc1 (stereo not drawn),-9%,.
COc1ccc(C(=O)C2CCCN(C(=O)c3cccnc3OC)C2)cc1F (stereo not drawn),4%,9%
O=C(N/N=C/c1cc2cc3c(cc2nc1Cl)OCCO3)c1ccccc1O,2%,-3%
CCC(=O)N1C(C(=O)O)CSC1c1ccc(OC)cc1 (stereo not drawn),-5%,1%
CCN1CCN(C(=O)c2ccc(NS(=O)(=O)c3ccccc3)cc2)CC1,1%,1%
Cc1ccc(N2CCN(C(=O)c3nn(C)c4c3CS(=O)(=O)c3ccccc3-4)CC2C)cc1 (stereo not drawn),-14%&1%,6%&-3%
CC(C)c1ccc(N2CCN(C(=O)c3ccccc3NC(=O)/C=C\C(=O)O)CC2)cc1,0%,0%
CCOC(=O)c1sc2nc(C)nc(SCC(=O)NC3CCS(=O)(=O)C3)c2c1C (stereo not drawn),-3%,2%
Cc1ccc(Nc2ccc([N+](=O)[O-])cn2)cc1Cl,0%,3%
O=C(c1ccc(S(=O)(=O)N2CCOCC2)cc1)N1CCN(c2cccc(Cl)c2)CC1,6%,-2%
CCOc1ccccc1NC(=O)COc1ccc(S(=O)(=O)N2CCCC2)cc1,-22%,.
O=C(COc1cc(Cl)ccc1Cl)Nc1nnc(CC(=O)N2CCOCC2)s1,0%,6%
COc1cc2c(cc1OC)C(c1cc(OC)c(OC)c(OC)c1)NCC2 (stereo not drawn),4%,7%
CCCC(C)c1nnc(NC(=O)C2CCCO2)s1 (stereo not drawn),-13%,7%

# (further entries)
SMILES,FEN1 inh,TDP1 block
CCN(CC)S(=O)(=O)c1cccc(-c2nc3n(n2)Cc2ccccc2-3)c1,10%,5%
CS(=O)(=O)c1ccc(Cl)c(NC(=O)COC(=O)CNC(=O)c2ccc3ccccc3c2)c1,-1%,.
COc1ccc(/C=C/C(=O)Oc2cc(O)cc(O)c2)cc1,-18%,7%
COc1ccc(/C=N/NC(=O)c2ccccc2O)cc1CSc1ccccn1,3%,6%
Nc1cc(C(=O)N/N=C/c2cccc([N+](=O)[O-])c2)n[nH]c1=O,-8%,.
O=C(NCCCN1CCCC1)c1ccc2c(c1)N(Cc1cccc(Cl)c1)C(=O)c1ccccc1S2=O (stereo not drawn),-3%,1%
Cc1cc(C)n(C(=O)C(C(=O)c2ccccc2)C(C)C)n1 (stereo not drawn),-9%,5%
O=C(CCCCl)N1CCc2[nH]c3ccccc3c2C1,-8%,5%
O=C(OCC(=O)N1c2ccccc2Sc2ccccc21)C1CC(=O)N(Cc2ccco2)C1 (stereo not drawn),-18%,12%
Cc1ccccc1N=C(NO)c1nonc1N,-8%,5%
COC(=O)/C(=C1\Oc2ccc(C(C)(C)C)cc2S1)C(F)(F)F,8%,8%
CCOc1ccc(NC(=O)C2CCCN2C(=O)Oc2ccccc2)cc1 (stereo not drawn),8%,.
CCOc1ccccc1/C=C(/NC(=O)c1ccccc1)C(=O)N(CC)CC,0%,2%
Cc1ccc(S(=O)(=O)N2CC(O)C[C@H]2C(=O)OCC(=O)Nc2ccc(N3CCOCC3)cc2)cc1C (stereo partly drawn),-9%,4%
CC(C)C(CO)NC(=O)CC(=O)NC(CO)C(C)C (stereo not drawn),3%,2%
COC(=O)C1=C(CSc2nncn2C)NC(=O)NC1c1ccc(F)cc1 (stereo not drawn),-9%,8%
CC(C)OC(=O)c1cccnc1SCc1cc(=O)n2ccccc2n1,-1%,-4%
CS(=O)(=O)N(CC(=O)NCCSCc1ccccc1)c1ccc2c(c1)OCO2,0%,4%
COc1cc(NC(=O)c2ccccc2F)ccc1NC(=O)c1ccccc1Cl,7%,3%
COc1cc(C(=O)NCCNc2nc3c(C)c(C)ccc3cc2C#N)cc(OC)c1OC,14%,.
Cc1cc(C(=O)COC(=O)c2csc3c2CCCC3)c(C)n1C,-1%,-2%
O=C(CSc1nnc(Cc2ccccc2)o1)NCCc1ccccc1,4%,1%
COc1ccc(N(CC(=O)Nc2cc(OC)cc(OC)c2)S(=O)(=O)c2c(C)n[nH]c2C)cc1,0%,3%
Cc1ccc(OCC(=O)N(Cc2cccs2)C2CCS(=O)(=O)C2)cc1C (stereo not drawn),-6%,0%
CCC(C)c1ccccc1NC(=O)C(C)OC(=O)c1ccco1 (stereo not drawn),-4%,-2%

# Some of the entries above in another layout:
structure | FEN1 inh | TDP1 block
COc1ccc(N(CC(=O)Nc2cc(OC)cc(OC)c2)S(=O)(=O)c2c(C)n[nH]c2C)cc1 | 0% | 3%
Cc1ccc(OCC(=O)N(Cc2cccs2)C2CCS(=O)(=O)C2)cc1C (stereo not drawn) | -6% | 0%

# (continued)
SMILES,FEN1 inh,TDP1 block
O=C1C[C@H]2CCCCC(=O)N3CC[C@@H](C1)[C@@H]23,-17%,0%[56.1 µM]
CC1(C)CC(=O)C=C(Nc2ccc(OCC(F)(F)C(F)F)cc2)C1,9%,-1%
O=c1c2ccccc2cnn1Cc1n[nH]c(=S)n1-c1ccccc1Cl,-5%,0%
CCc1ccc(-c2cc3c(=O)n(CC(=O)NCCCN4CCN(CC)CC4)nc(C)n3n2)cc1,-4%,1%
O=C1OCc2ccc(NC(=O)C3CC3)cc21,0%,-2%
C#CCn1c(-c2ccccc2)ccc(C#N)c1=O,0%,5%
CCOC(=O)C1=C(C)NC(=O)NC1c1ccc(N(CC)CC)cc1 (stereo not drawn),18%,-3%
CC1CCc2nc3ccccc3c(C(=O)OCC(=O)N3CCc4ccccc43)c2C1 (stereo not drawn),-2%,-2%
Cc1cc(C)n2nc(CNS(=O)(=O)c3ccc([N+](=O)[O-])cc3)nc2n1,-4%,2%
CCC/C=C1/CCCOC(C(=O)NCc2ccc(S(C)(=O)=O)cc2)(C(F)(F)F)C1 (stereo not drawn),14%&-1%,9%
O=C(Cn1c(=O)cnc2ccccc21)NC1CCC(O)CC1 (stereo not drawn),6%,.
Cc1ccc(Nc2c([N+](=O)[O-])c(=O)oc3ccccc23)cc1,-6%,6%
NC(=O)C1CCN(C(=O)CN(c2cccc(Cl)c2)S(=O)(=O)c2ccccc2)CC1,-5%,1%
N#Cc1ccccc1NC(=O)Nc1ccccc1,9%,1%
COc1ccc(-c2ccc(S(=O)(=O)NCC3CCCO3)cc2)cc1 (stereo not drawn),-10%,3%
COC(=O)COc1ccc(/C=N/NS(=O)(=O)c2ccccc2)cc1,1%,.
CC(OC(=O)Cn1[nH]c(=O)c2ccccc2c1=O)C(=O)Nc1ccc(F)cc1Cl (stereo not drawn),13%,0%
CCCCCC(=O)Nc1ccc(N2CCN(C(=O)c3ccccc3)CC2)cc1,-1%,2%
O=C(c1ccc2c(=O)n3c(nc2c1)CCC3)N1CCCSC1=Nc1ccccc1,-11%,5%
COc1cc(OC)cc(OC(=O)c2ccc3c(=O)n4c(nc3c2)CCC4)c1,-6%,0%
COc1ccc(CNC(=O)N2CCN(c3cccc(C)c3C)CC2)cc1OC,-3%,9%
COc1ccc(C(=O)N/N=C\c2coc3ccc(Cl)cc3c2=O)cc1,-22%,7%[56.1 µM]
Cc1ccc(C(C)C)cc1S(=O)(=O)NCc1ccccn1,-3%,4%
Cc1ccc(S(=O)(=O)N(C)c2ccc(C(=O)NCCc3ccccc3)cc2)cc1,-5%,1%
COc1cc(NC(=O)CCc2nnc3ccc(N4CCOCC4)nn23)cc(OC)c1OC,-11%,3%
C/C=C/C(=O)N1CC2(CC(c3cccc(NC(=O)COc4ccc(Cl)cc4)c3)=NO2)C[C@@H]1C(N)=O (stereo partly drawn),-4%,0%
CN1C(=O)C2C(c3ccc(N(C)C)cc3)NN(Cc3ccccc3)C2C1=O (stereo not drawn),3%,8%
COc1cccc(N2CCN(Cc3nc4scc(-c5ccccc5)c4c(=O)[nH]3)CC2)c1,-18%,3%
CCCCN(CC)C(=O)c1cccc(Cl)c1,3%,-9%
Cn1c(=O)c2c(nc(N3CCOCC3)n2Cc2c(F)cccc2Cl)n(C)c1=O,-4%,5%

# Full records, looked up by structure. Order of values: FEN1 inh | TDP1 block
# Record of `N#Cc1ccccc1NC(=O)Nc1ccccc1` : 9% | 1%
# Record of `O=C(c1ccc2c(=O)n3c(nc2c1)CCC3)N1CCCSC1=Nc1ccccc1` : -11% | 5%
# Record of `Cc1ccc(Nc2c([N+](=O)[O-])c(=O)oc3ccccc23)cc1` : -6% | 6%
